Env fusion inh – inhibitors of HIV-1 Env-driven cell-cell fusion, primary screen, HeLa-JRFL effector, CEM21 target cells, luciferase. inhibition, % at 12.3 µM. actives 1.1% (n = 360,000);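 active means mean replicate inhibition score of at least 50 and every replicate individually at or above 50; inconclusive means only one of the two criteria met; inactive means mean below 50 and not all replicates reaching 50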;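 further: 0% = plate neutral controls and 100% = maraviroc near 300 nM; one replicate is shown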
UUG fidelity – modulators of yeast start codon fidelity, primary screen, whole organism, S. cerevisiae, single point, plate reader | S. cerevisiae UUG-firefly luciferase reporter, luminescence/redox ratio | activity score, % at 18.7 µM | actives 0.13% (n = 350,000);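 active means replicate mean at a twofold rise or more, about +100% in these data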;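 further: firefly luciferase made from a UUG start codon reports start codon fidelity; reporter light over untreated wells divided by growth signal over untreated wells; some hits fall short of that in this replicate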
Starred values were filed as active, the others as inactive; u = inconclusive; [ ] = another dose, or the depositor's remark. The list is partial; the hit share may differ from the screen's.

Order of values: Env fusion inh	UUG fidelity
[1] C[C@@H]1CN([C@H](C)CO)S(=O)(=O)c2ccc(C#Cc3cccc(F)c3)cc2O[C@@H]1CN(C)C(=O)NC1CCCCC1
    14[16.7 µM]	-8
[2] CCCNC(=O)N(C)C[C@@H]1Oc2cc(-c3ccc(C)cc3)ccc2S(=O)(=O)N([C@@H](C)CO)C[C@H]1C
    -38[16.7 µM]	4
[3] CCC(=O)N(C)C[C@@H]1Oc2cc(/C=C/c3ccccc3)ccc2S(=O)(=O)N([C@@H](C)CO)C[C@@H]1C
    41[16.7 µM]	19
[4] O=C(Cc1ccccc1)N[C@@H]1C=C[C@@H](CC(=O)N2CCCCC2)O[C@@H]1CO
    14[16.7 µM]	-30
[5] O=C(N[C@H]1CC[C@@H](CCn2cc(C3(O)CCCC3)nn2)O[C@H]1CO)C1CCCC1
    -1[16.7 µM]	-16
[6] C[C@H]1CN([C@@H](C)CO)C(=O)c2cccc(NS(=O)(=O)c3cn(C)cn3)c2O[C@@H]1CN(C)S(=O)(=O)c1ccc(Cl)cc1
    -18[16.7 µM]	-4
[7] Cc1ccc(S(=O)(=O)Nc2ccc3c(c2)C(=O)N([C@@H](C)CO)C[C@@H](C)[C@H](CN(C)Cc2ccc(C(=O)O)cc2)O3)cc1
    -2[16.7 µM]	-17
[8] C/C=C/c1ccc2c(c1)O[C@@H](CN(C)Cc1cccnc1)[C@H](C)CN([C@@H](C)CO)S2(=O)=O
    19[16.7 µM]	-11
[9] CC(C)CC#Cc1cnc2c(c1)C(=O)N([C@@H](C)CO)C[C@@H](C)[C@@H](CN(C)S(=O)(=O)c1cn(C)cn1)O2
    -3[16.7 µM]	-8
[10] C[C@H](CO)N1C[C@H](C)[C@@H](CN(C)C(=O)CC2CC2)Oc2ncc(C#CCC3CCCC3)cc2C1=O
    23[16.7 µM]	6
[11] CC(=O)N(C)C[C@H]1Oc2ncc(C#Cc3ccccc3F)cc2C(=O)N([C@H](C)CO)C[C@H]1C
    2[16.7 µM]	7
[12] C[C@@H]1CN([C@H](C)CO)S(=O)(=O)c2ccc(Br)cc2O[C@@H]1CN(C)CC1CC1
    -4[16.7 µM]	6
[13] C[C@@H]1CN([C@@H](C)CO)C(=O)c2cc(NC(=O)C3CCCCC3)ccc2O[C@@H](C)CCCCO[C@H]1CN(C)S(=O)(=O)c1cccs1
    -47[16.7 µM]	0
[14] C[C@@H]1CN([C@@H](C)CO)S(=O)(=O)c2ccc(-c3ccccc3)cc2O[C@@H]1CN(C)Cc1ccncc1
    12[16.7 µM]	2
[15] C[C@@H]1CN([C@@H](C)CO)S(=O)(=O)c2ccc(-c3cccc(C#N)c3)cc2O[C@@H]1CN(C)C(=O)c1ccccc1
    -31[16.7 µM]	-14
[16] C[C@@H]1CN([C@@H](C)CO)C(=O)c2cc(C#C[C@@H](C)O)cnc2O[C@@H]1CN(C)C(=O)CN1CCOCC1
    29[16.7 µM]	2
[17] C[C@@H]1CN([C@H](C)CO)C(=O)c2cc(NC(=O)CCC(F)(F)F)ccc2O[C@@H](C)CCCCO[C@@H]1CN(C)S(=O)(=O)c1cn(C)cn1
    -1[16.7 µM]	9
[18] CCCC#Cc1ccc2c(c1)O[C@H](CN(C)C(=O)C1CC1)[C@@H](C)CN([C@H](C)CO)S2(=O)=O
    -17[16.7 µM]	11
[19] C[C@@H]1CN([C@@H](C)CO)C(=O)c2cc(-c3ccc(F)cc3)cnc2O[C@H]1CN(C)C(=O)c1ccccc1F
    -6[16.7 µM]	-3
[20] C[C@@H]1CCCCO[C@@H](CN(C)S(=O)(=O)c2ccc(F)cc2)[C@H](C)CN([C@@H](C)CO)C(=O)c2cc(NC(=O)Nc3ccc(C(F)(F)F)cc3)ccc2O1
    u	-21

Among those listed so far, these have a CF3 group.
Order of values: Env fusion inh	UUG fidelity
[17] C[C@@H]1CN([C@H](C)CO)C(=O)c2cc(NC(=O)CCC(F)(F)F)ccc2O[C@@H](C)CCCCO[C@@H]1CN(C)S(=O)(=O)c1cn(C)cn1
    -1[16.7 µM]	9
[20] C[C@@H]1CCCCO[C@@H](CN(C)S(=O)(=O)c2ccc(F)cc2)[C@H](C)CN([C@@H](C)CO)C(=O)c2cc(NC(=O)Nc3ccc(C(F)(F)F)cc3)ccc2O1
    u	-21

New compounds follow
Order of values: Env fusion inh	UUG fidelity
[21] Cc1ccc(S(=O)(=O)N(C)C[C@@H]2Oc3ccc(NS(C)(=O)=O)cc3C(=O)N([C@@H](C)CO)C[C@H]2C)cc1
    7[16.7 µM]	0
[22] Cc1noc(C)c1S(=O)(=O)Nc1ccc2c(c1)CC(=O)N([C@@H](C)CO)C[C@@H](C)[C@@H](CN(C)Cc1ccc(Oc3ccccc3)cc1)O2
    7[16.7 µM]	6
[23] COc1cccc(NC(=O)N[C@@H]2CC[C@H](CC(=O)N3CCOCC3)O[C@H]2CO)c1
    u	-2
[24] C/C=C/c1ccc2c(c1)O[C@H](CN(C)C(=O)c1ccncc1)[C@@H](C)CN([C@@H](C)CO)S2(=O)=O
    -13[16.7 µM]	-4
[25] O=C(N[C@@H]1CC[C@@H](CCNS(=O)(=O)c2ccc(F)cc2)O[C@H]1CO)C1CCC1
    4[16.7 µM]	0
[26] Cc1ccc(S(=O)(=O)Nc2ccc3c(c2)CC(=O)N([C@H](C)CO)C[C@@H](C)[C@@H](CN(C)S(=O)(=O)c2ccc(C)cc2)O3)cc1
    8[16.7 µM]	6
[27] Cc1noc(C)c1NC(=O)Nc1ccc2c(c1)C(=O)N([C@H](C)CO)C[C@@H](C)[C@@H](CN(C)Cc1ccc(C(F)(F)F)cc1)OCCCC[C@@H](C)O2
    41[16.7 µM]	10
[28] Cc1ccc(-c2ccc3c(c2)O[C@@H](CN(C)C(=O)NC(C)C)[C@@H](C)CN([C@@H](C)CO)S3(=O)=O)cc1
    -12[16.7 µM]	8
[29] Cc1ccc(-c2ccc3c(c2)O[C@H](CN(C)C(=O)NC(C)C)[C@@H](C)CN([C@@H](C)CO)S3(=O)=O)cc1
    -1[16.7 µM]	23
[30] C[C@@H]1CN([C@H](C)CO)C(=O)Cc2cc(NC(=O)Cn3cnnn3)ccc2O[C@@H]1CN(C)S(=O)(=O)c1ccc(Cl)cc1
    -14[16.7 µM]	4
[31] COc1cccc(S(=O)(=O)Nc2ccc3c(c2)C(=O)N(C)C[C@@H](OC)[C@@H](C)CN[C@@H](C)CO3)c1
    3[16.7 µM]	-8
[32] C[C@H](CO)N1C[C@H](C)[C@H](CN(C)S(=O)(=O)c2cccc(F)c2)Oc2ncc(-c3ccc(F)cc3)cc2C1=O
    28[16.7 µM]	3
[33] Cc1ccc(S(=O)(=O)N(C)C[C@@H]2Oc3ccc(NS(=O)(=O)c4ccccc4)cc3C(=O)N([C@H](C)CO)C[C@H]2C)cc1
    7[16.7 µM]	18
[34] NCC[C@@H]1CC[C@@H](NS(=O)(=O)c2ccc(Cl)cc2)[C@@H](CO)O1
    -3[16.7 µM]	-11
[35] C[C@H]1CN([C@@H](C)CO)S(=O)(=O)c2ccc(-c3ccncc3)cc2O[C@H]1CN(C)C(=O)Nc1ccc(F)cc1
    -29[16.7 µM]	-4
[36] CCCC(=O)Nc1ccc2c(c1)OC[C@H](C)N(CC1CCCC1)C[C@@H](C)[C@@H](OC)CN(C)C2=O
    -6[16.7 µM]	-2
[37] Cc1ccc(S(=O)(=O)N(C)C[C@H]2Oc3ccc(NS(=O)(=O)c4c(C)noc4C)cc3C(=O)N([C@H](C)CO)C[C@H]2C)cc1
    -11[16.7 µM]	7
[38] O=C(N[C@@H]1CC[C@@H](CCNS(=O)(=O)c2ccc(F)cc2)O[C@@H]1CO)c1ccccn1
    -9[16.7 µM]	-11
[39] C[C@@H]1CN([C@@H](C)CO)C(=O)c2cc(NC(=O)Cc3cn(C)c4ccccc34)ccc2O[C@H]1CN(C)S(C)(=O)=O
    10[16.7 µM]	13
[40] C[C@@H]1CN([C@@H](C)CO)C(=O)Cc2cc(NS(=O)(=O)c3ccc(Cl)cc3)ccc2O[C@H]1CN(C)S(=O)(=O)c1cn(C)cn1
    -10[16.7 µM]	3
[41] CCC(=O)Nc1ccc2c(c1)C(=O)N(C)[C@@H]1CC[C@H](CC(=O)NCc3ccccc3Cl)O[C@@H]1CO2
    -4[16.7 µM]	3
[42] C[C@H](CO)N1C[C@H](C)[C@H](CN(C)C(=O)CCC(F)(F)F)OCCCC[C@H](C)Oc2ccc(NC(=O)NC3CCCCC3)cc2C1=O
    -19[16.7 µM]	6
[43] COc1ccccc1CNC(=O)C[C@@H]1CC[C@H](NC(C)=O)[C@H](CO)O1
    -5[16.7 µM]	-11
[44] COc1ccc(NC(=O)N(C)C[C@H]2Oc3c(NC(=O)Nc4ccc(C(F)(F)F)cc4)cccc3C(=O)N([C@H](C)CO)C[C@H]2C)cc1
    -6[16.7 µM]	-7
[45] CNC[C@H]1OCCCC[C@@H](C)Oc2ccc(NC(=O)CCC(F)(F)F)cc2C(=O)N([C@H](C)CO)C[C@H]1C
    -10[16.7 µM]	7
[46] C[C@@H]1CN([C@H](C)CO)C(=O)Cc2cc(NC(=O)CCC(F)(F)F)ccc2O[C@@H]1CN(C)Cc1ccc(C(=O)Nc2ccccc2N)cc1
    -82[16.7 µM]	-5
[47] Cc1noc(C)c1NC(=O)Nc1cccc2c1O[C@@H](CN(C)C(=O)Nc1ccc(C(F)(F)F)cc1)[C@H](C)CN([C@@H](C)CO)C2=O
    -5[16.7 µM]	-7
[48] C[C@@H]1CN([C@@H](C)CO)S(=O)(=O)c2ccc(Br)cc2O[C@@H]1CN(C)C(=O)C1CCCCC1
    24[16.7 µM]	0
[49] C[C@@H]1CN([C@H](C)CO)C(=O)c2cc(C#C[C@@H](C)O)cnc2O[C@H]1CN(C)CC1CCCCC1
    -7[16.7 µM]	-1
[50] COc1ccc(NC(=O)N(C)C[C@@H]2Oc3c(NC(=O)c4ccncc4)cccc3C(=O)N([C@@H](C)CO)C[C@H]2C)cc1
    38[16.7 µM]	-8
[51] CCNC(=O)C[C@H]1CC[C@H]2[C@@H](COc3ccc(NC(=O)Nc4cccc(C)c4)cc3C(=O)N2C)O1
    24[16.7 µM]	3
[52] CCCNC(=O)N(C)C[C@H]1Oc2cc(-c3ccncc3)ccc2S(=O)(=O)N([C@H](C)CO)C[C@@H]1C
    -14[16.7 µM]	-11
[53] CC(C)CC#Cc1ccc2c(c1)O[C@@H](CN(C)C(=O)Cc1ccccc1)[C@H](C)CN([C@@H](C)CO)S2(=O)=O
    23[16.7 µM]	23
[54] CNC[C@@H]1Oc2ccc(N(C)C)cc2CC(=O)N([C@@H](C)CO)C[C@@H]1C
    -5[16.7 µM]	-2
[55] CO[C@H]1CN(C)C(=O)c2cc(NS(=O)(=O)c3ccc(-c4ccccc4)cc3)ccc2OC[C@H](C)NC[C@H]1C
    -22[16.7 µM]	-15
[56] CCCNC(=O)N(C)C[C@H]1Oc2cc(C#CC(C)C)ccc2S(=O)(=O)N([C@H](C)CO)C[C@H]1C
    -26[16.7 µM]	29
[57] COc1ccc(COCC23Oc4ccccc4[C@H]([C@H]2CO)n2c(c4c(c(C(C)=O)c2=O)C(=O)N(C)C4=O)N3C)cc1
    3[16.7 µM]	5
[58] C[C@H]1CN([C@@H](C)CO)C(=O)c2cccc(NS(=O)(=O)c3ccccc3)c2O[C@H]1CN(C)S(=O)(=O)c1cn(C)cn1
    22[16.7 µM]	1
[59] C[C@@H]1CCCCO[C@H](CN(C)C(=O)Cc2ccccc2)[C@H](C)CN([C@H](C)CO)C(=O)c2cc(NC(=O)Nc3ccccc3)ccc2O1
    -24[16.7 µM]	-5
[60] C[C@H](CO)N1C[C@H](C)[C@H](CN(C)C(=O)Nc2cccc3ccccc23)OCCCC[C@H](C)Oc2ccc(NC(=O)Nc3cccc4ccccc34)cc2C1=O
    -16[16.7 µM]	-8

Reprinted from the part before: 4 entries, followed by the next part.
Order of values: Env fusion inh	UUG fidelity
[57] COc1ccc(COCC23Oc4ccccc4[C@H]([C@H]2CO)n2c(c4c(c(C(C)=O)c2=O)C(=O)N(C)C4=O)N3C)cc1
    3[16.7 µM]	5
[58] C[C@H]1CN([C@@H](C)CO)C(=O)c2cccc(NS(=O)(=O)c3ccccc3)c2O[C@H]1CN(C)S(=O)(=O)c1cn(C)cn1
    22[16.7 µM]	1
[59] C[C@@H]1CCCCO[C@H](CN(C)C(=O)Cc2ccccc2)[C@H](C)CN([C@H](C)CO)C(=O)c2cc(NC(=O)Nc3ccccc3)ccc2O1
    -24[16.7 µM]	-5
[60] C[C@H](CO)N1C[C@H](C)[C@H](CN(C)C(=O)Nc2cccc3ccccc23)OCCCC[C@H](C)Oc2ccc(NC(=O)Nc3cccc4ccccc34)cc2C1=O
    -16[16.7 µM]	-8
[61] Cc1ccc(S(=O)(=O)N(C)C[C@@H]2Oc3ccc(NS(=O)(=O)c4c(C)noc4C)cc3C(=O)N([C@H](C)CO)C[C@H]2C)cc1
    14[16.7 µM]	-1
[62] COCC(=O)N(C)C[C@H]1Oc2ncc(-c3ccccc3OC)cc2C(=O)N([C@H](C)CO)C[C@H]1C
    -10[16.7 µM]	-12
[63] C[C@H]1CN([C@@H](C)CO)S(=O)(=O)c2ccc(C#CCN(C)C)cc2O[C@@H]1CN(C)C(=O)C1CCC1
    -30[16.7 µM]	1
[64] C[C@@H]1CN([C@@H](C)CO)C(=O)c2cccc(NC(=O)C3CC3)c2O[C@@H]1CN(C)C(=O)Nc1cccc2ccccc12
    -57[16.7 µM]	3
[65] CC(C)C#Cc1ccc2c(c1)O[C@@H](CN(C)Cc1ccccc1)[C@@H](C)CN([C@H](C)CO)S2(=O)=O
    8[16.7 µM]	5
[66] O=C(C[C@H]1C=C[C@H](NC(=O)C2CC2)[C@H](CO)O1)Nc1ccccc1
    -9[16.7 µM]	-26
[67] C[C@@H]1CCCCO[C@H](CN(C)C(=O)Nc2ccc(F)cc2)[C@H](C)CN([C@H](C)CO)C(=O)c2cc(NC(=O)c3ccccc3)ccc2O1
    10[16.7 µM]	9
